Screening results: PubChem BioAssay, National Center for Advancing Translational Sciences (NCATS)
AID923: qHTS Assay for Allosteric/Competitive Inhibitors of Caspase-1: Spectroscopic Profiling in AFC Spectral Region; hit rate 1.1% among 75,000; compound fluorescence, AFC spectral region (405/520 nm); almost no hit is shown here; Potency, µM (top dose mostly 57.5 µM), for the others: top-dose fluorescence increase, actives largely listed as activators; active = well fitted activation curve with a large enough effect; inconclusive = small, poorly fitted or top-dose-only effect;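 also: potency is read from the fitted curve at half-maximal effect; 0% is about no effect; scaled to a free AFC standard on each plate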
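Compound autofluorescence profiled at 405 nm ex/520 nm em during kinetic caspase 1 run (50 nM enzyme, 5 uM Ac-WEHD-AFC, HEPES pH 7.5, 10 mM DTT). Titration up to 57 uM; baseline from regression intercept, normalized to AFC standard curve.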
A647 fluor: A647 region autofluorescence. Compound fluorescence, A647 channel (570/671 nm), Tris buffer. 59,000 tested, under 10 active. max dye-equivalent concentration, M; active means above 1 µM dye equivalent; inconclusive means 0.1 to 1 µM; inactive means 0.1 µM or less;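 also: values scaled relative to a standard on each plate; highest value over a series up to 38 µM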
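Spectral profiling of library compounds in pH 8.0 Tris: 15 min room-temperature incubation, single ex/em pair (570/671 nm), response normalized to Alexa 647 equivalents.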
A488 autofl: A488 region autofluorescence | hit rate 0.1% among 59,000 | compound autofluorescence, A488 spectral region, dye equivalency; stronger effect = higher value | AID 591 | max dye equivalency, M; active = above 10 nM dye equivalent; inconclusive = 1 to 10 nM; inactive = 1 nM or less; about half of its hits are not listed in these tables;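 also: highest value over a series up to 38 µM; compound alone in buffer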
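Autofluorescence read at ex 480/em 540 nm after 15 min RT in 100 mM Tris pH 8.0; compound signal normalized to A488 standard series on each plate, reported as dye-equivalent concentration at each test concentration.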
Resorufin autofl: compound fluoresces in the resorufin spectral region; Compound fluorescence, resorufin region 547/598 nm, buffer; stronger effect = higher value; max dye-equivalent concentration, M; hit rate 0.04% among 59,000; active = above 10 nM dye equivalent; inconclusive = 1 to 10 nM; inactive = 1 nM or less; a few of its hits are not listed in these tables; also: highest value over a series up to 38 µM
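Compounds in 100 mM Tris buffer, pH 8.0, incubated 15 min at room temperature, then read with 547 nm excitation and 598 nm emission filters. Fluorescence was converted to dye-equivalent concentration using an on-plate six-point resorufin standard curve.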
TSHR agonist: activates the human thyroid stimulating hormone receptor; AID 926; HEK293-CNG-TSHR cells (CNG channel as cAMP sensor), membrane potential dye, cAMP; hit rate 0.48% among 73,000; Potency, µM (series often up to 57.1 µM), inactives show at the highest dose activation, actives largely listed as activators; active = well fitted activation curve of enough size with the parental cells flat; inconclusive = any curve in the parental cells; inactive = parental cells flat and receptor cells flat or falling; also: potency is read from the fitted curve at half-maximal effect; % of control where 0% means no effect; weak receptor curves with flat parental cells got no call and are not listed
Target sequence (P16473 whole entry, looked up): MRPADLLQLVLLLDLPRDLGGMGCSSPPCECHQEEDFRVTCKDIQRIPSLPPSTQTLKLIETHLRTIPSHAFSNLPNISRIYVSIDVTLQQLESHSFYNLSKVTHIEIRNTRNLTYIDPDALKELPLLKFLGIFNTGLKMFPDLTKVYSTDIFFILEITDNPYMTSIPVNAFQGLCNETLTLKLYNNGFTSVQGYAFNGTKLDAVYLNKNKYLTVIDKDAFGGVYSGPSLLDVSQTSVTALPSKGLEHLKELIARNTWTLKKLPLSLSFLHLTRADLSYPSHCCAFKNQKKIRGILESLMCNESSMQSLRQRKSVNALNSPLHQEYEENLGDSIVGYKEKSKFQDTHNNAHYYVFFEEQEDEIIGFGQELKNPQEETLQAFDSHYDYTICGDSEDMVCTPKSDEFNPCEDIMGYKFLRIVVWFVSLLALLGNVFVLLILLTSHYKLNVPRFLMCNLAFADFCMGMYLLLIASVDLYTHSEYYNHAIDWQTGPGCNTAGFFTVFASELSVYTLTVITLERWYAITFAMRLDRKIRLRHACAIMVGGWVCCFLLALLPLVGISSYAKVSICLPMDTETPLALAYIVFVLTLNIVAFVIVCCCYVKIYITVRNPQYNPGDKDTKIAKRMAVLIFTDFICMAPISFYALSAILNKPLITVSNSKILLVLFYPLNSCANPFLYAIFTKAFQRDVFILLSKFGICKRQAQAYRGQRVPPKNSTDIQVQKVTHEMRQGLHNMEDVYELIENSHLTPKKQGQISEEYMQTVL
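HEK 293 cells stably expressing TSHR and a cAMP-gated CNG channel; parental CNG-only cells as counterscreen. Cells preloaded 60 min with membrane potential dye plus 100 uM RO 20-1724, then compound 30 min; fluorescence read at 590 nm.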
Numbers without * were called inactive; i = inactive; ? = inconclusive; . = not tested or not shown; [ ] = dose if it differs, or a comment.

SMILES	AID923	A647 fluor	A488 autofl	Resorufin autofl	TSHR agonist
C=CCOC(=O)C1=C(C)Nc2nc3ccccc3n2C1c1ccncc1 (centres undefined)	5.9%	1e-09	i	i	7%
Clc1ccccn1	-0.3%	.	.	.	1%
CN(C)S(=O)(=O)c1cccc(C(=O)Nc2cc(Cl)ccc2O)c1	-3.7%	1.1e-09	i	i	-18%
CCn1c(=O)cc(O)c2c(=O)n(C)c(=O)n(C)c21	-0.6%	1.1e-09	i	i	0%
O=c1cc(-c2ccccc2)[nH]c2nc3ccccc3n12	3.4%	2.3e-08	i	i	8%
Cc1nnc(SCC(=O)NCCc2ccccc2)[nH]c1=O	2.2%	4.2e-08	i	i	1%
Cc1cc(NC(=O)Nc2ccccc2)n(-c2ccccc2)n1	-1.4%	6.6e-09	i	i	?
O=C(NS(=O)(=O)c1ccccc1)c1ccccc1F	-0.3%	1.9e-08	i	i	11%
COc1ccc(Cn2c(-c3ccco3)nc3oc4ccccc4c(=O)c3c2=O)cc1	-0.2%	1.4e-08	i	i	-8%
CCCc1nnc(SCc2ccc(C(=O)OC)o2)n1N	-0.7%	1e-09	i	i	4%
COCCNc1ncnc2ccc(-c3ccccc3OC)cc12	0.8%	2.8e-08	i	i	?
O=c1c2ccccc2sn1-c1ccc(S(=O)(=O)N2CCCC2)cc1	0.2%	2.6e-08	i	i	2%
COc1ccc(-c2nnc3n2N=C(C)CS3)cc1OC	-0.2%	2.5e-08	i	i	?
O=C(CN1C(=O)CCSc2ccccc21)Nc1cccc(F)c1	1.8%	.	.	.	4%
COc1ccc(CCNC(=O)CN2CCC(n3nnc4cc(F)ccc43)CC2)cc1OC	0.6%	4.2e-08	i	i	0%
COc1ccc(NC(=O)CSc2nc3c(cc2C#N)CN(C)CC3)cc1	8.4%	1e-09	i	i	10%
CN(Cc1ccccc1)C(=O)CCS(=O)(=O)c1ccc2c(c1)n(C)c(=O)c(=O)n2C	-1.3%	.	.	.	-11%
CCOC(=O)c1c(C)c(C(=O)NCc2ccccc2OC)c(C)n1C	-0.6%	1e-09	i	i	7%[11.4 µM]
COc1ccc(Cn2c(CCC(=O)NCc3ccco3)nc3cccnc32)cc1	0.1%	3.6e-08	i	i	4%
CC1=C(C(=O)Nc2ccccc2C)C(c2ccc(C)o2)C2=C(CCCC2=O)N1 (centres undefined)	2.9%	1e-09	i	i	-2%
COc1ccc(C(=O)OCC(=O)c2ccc(C)c(S(=O)(=O)N3CCOCC3)c2)cc1OC	0.6%	1e-09	i	i	?
CCOC(=O)CCC(NC(=O)c1cncc(O)c1)C(=O)OCC (centres undefined)	-1.8%	1e-09	i	i	4%
COc1ccc(Cl)cc1N(CC(=O)Nc1ccccc1SC)S(C)(=O)=O	-1.3%	2.6e-08	i	i	5%
CC(C)c1ccc(-c2nc(N3CCCC3)nc3n[nH]c(N)c23)cc1	3.1%	9.9e-09	i	i	7%
Cc1noc(C)c1-c1cc(NCc2cccs2)ncn1	2.5%	1.7e-08	i	i	?
Fc1ccccc1CSc1nnc(Cn2cnc3ccccc32)n1-c1ccccc1	-2.1%	1.9e-08	i	i	11%
CCOc1ccc(N(CC(=O)NCc2ccc(OC)cc2)S(=O)(=O)c2c(C)noc2C)cc1	0.8%	2.1e-08	i	i	.
COc1cccc(C(=O)Nc2c3c(nn2-c2cccc(C)c2C)CS(=O)C3)c1OC (centres undefined)	0.2%	1.9e-08	i	i	2%
O=C(CCc1n[nH]c(=O)[nH]c1=O)N1CCOCC1	5.8%	.	.	.	?
COc1ccc(-c2nnc3n2-c2ccccc2SC3)cc1OC	1.7%	2e-08	i	i	11%
Cc1cc2nc(SCC(=O)O)nc(C)c2cc1C	-3.7%	2.9e-08	i	i	-10%
COc1ccc(NC(=O)Cn2cccc2)c(OC)c1	2.8%	2.7e-08	i	i	5%[11.4 µM]
Cc1ccccc1C(N)=O	2.3%	.	.	.	-10%
O=C(N/N=C1/C[C@@H](O)[C@@H](O)[C@@H]2[C@@H]3C(=O)N(Cc4ccc5c(c4)OCO5)C(=O)[C@H]3CC[C@@H]12)OCc1ccccc1	0.1%[11.5 µM]	.	.	.	0%[11.4 µM]
CCOC(=O)Cn1nnc(-c2ccc(SC)cc2)n1	-1.0%	1.9e-09	i	i	-5%
Cc1cccc(Cn2c(NCCO)nc3c2c(=O)n(C)c(=O)n3C)c1	0.1%	1e-09	i	i	15%
Cc1cccc(Nc2ccncc2S(=O)(=O)NC(=O)NC(C)C)c1	-0.7%	4.6e-08	i	i	1%[25.6 µM]
COc1cccc(-c2nn3c(-c4ccccn4)nnc3s2)c1	.	1e-09	i	i	.
Cc1ccn2cc(C(=O)Nc3ccccc3N3CCOCC3)nc2c1	-4.0%	4e-08	i	i	0%
COCCn1c(SCC(=O)NC(=O)NCc2ccccc2)nc2ccccc21	-0.3%	1e-09	i	i	?
CCCOC(=O)C1[C@H]2C(=O)N(C(C)c3ccc(OC)cc3)C[C@]23C=C[C@H]1O3 (some centres undefined)	0.3%	1e-09	i	i	30%
Cc1ccccc1OCC(O)CN (centres undefined)	0.1%	3.5e-08	i	i	4%
CCOC(=O)C1CCCN(C(=O)c2cn(C)c3ccc(S(=O)(=O)N4CCCC4)cc3c2=O)C1 (centres undefined)	-0.8%	2.3e-08	i	i	-4%
CCCOC(=O)Cn1c(=O)c2cc3c(=O)n(CC(=O)OCCC)c(=O)c3cc2c1=O	0.9%	1e-09	i	i	-1%
CNC(=O)[C@@H](Cc1ccccc1)N(C)C(=O)[C@@H](Cc1ccc2ccccc2c1)N(C)C(=O)/C=C/CC(C)(C)N	0.2%	.	.	.	9%
Cc1cc(-c2ccccc2)c2c3c(cn2n1)c(=O)n(C)c(=O)n3C	0.1%	4.1e-09	i	i	-2%
COc1cc(C2C(C#N)=C(C)NC3=C2C(=O)CC(C)(C)C3)ccc1O (centres undefined)	3.1%	7.4e-09	i	i	-5%
Cc1ccc(OCc2nnc(SCC(=O)Nc3sc(C)c(C)c3C#N)n2C)cc1	0.0%	1e-09	i	i	?
CCc1ccc(N(CC)c2ncnc3nc[nH]c23)cc1	-2.5%	.	.	.	-2%
O=S(=O)(N=S(N1CCCCC1)N1CCCCC1)c1ccccc1	1.2%	.	.	.	11%
COC(=O)c1cc2sc(Cl)cc2n1CC(=O)Nc1cccc(SC)c1	-0.1%	1.2e-08	i	i	?
N=C(N)SCCc1cccc(CCSC(=N)N)c1	-1.3%	1e-09	i	i	4%
O=C(CN1C(=O)c2ccccc2S1(=O)=O)c1ccccc1	.	7.2e-08	i	i	.
O=C(Nc1ccc(Cl)cc1)C1CC=CCC1C(=O)OCC(F)(F)C(F)F (centres undefined)	2.2%	1e-09	i	i	7%[11.4 µM]
O=C(c1ccco1)N1CCN(C(=O)c2ccc(Cn3cc(Br)cn3)o2)CC1	1.2%	1e-09	i	i	-2%
Cn1c(=O)c2c(ncn2CN2CCN(Cn3cnc4c3c(=O)n(C)c(=O)n4C)CC2)n(C)c1=O	3.1%[11.5 µM]	3.8e-09	i	i	-3%[11.4 µM]
CCCC(=O)N(c1ccc(F)cc1)C1C=CS(=O)(=O)C1 (centres undefined)	-0.7%	1e-09	i	i	5%[11.4 µM]
CCOC(=O)c1c(C)[nH]c(C(=O)OC/C(O)=C(\C#N)c2nc3ccccc3[nH]2)c1C	-2.0%	1.9e-08	i	i	5%
O=C(NCCC1=CCCCC1)c1cnsn1	-2.1%	7.6e-09	i	i	5%
O=C(c1cccc(F)c1)N1CCC2(CC1)CN(c1ccc(-c3ccccc3)cc1)C2	-0.3%	1.5e-08	i	i	4%

(further entries)
SMILES	AID923	A647 fluor	A488 autofl	Resorufin autofl	TSHR agonist
O=C(Nc1ccc(-c2nc3ccccc3[nH]2)cc1)C1CCCO1 (centres undefined)	-0.6%	2.7e-08	i	i	1%
CCCOC(=O)c1ccc(NC(=O)c2cnccn2)cc1	0.1%	2e-08	i	i	-5%
CC1(C)OC(C(O)(c2cc(C(F)(F)F)cc(C(F)(F)F)c2)c2cc(C(F)(F)F)cc(C(F)(F)F)c2)C(C(O)(c2cc(C(F)(F)F)cc(C(F)(F)F)c2)c2cc(C(F)(F)F)cc(C(F)(F)F)c2)O1 (centres undefined)	-0.4%[11.5 µM]	.	.	.	-3%[11.4 µM]
O=C(O)C1CC=CCC1C(=O)Nc1cccc(F)c1 (centres undefined)	1.9%	.	.	.	-5%
CCOC(=O)c1cccc(NC(=O)CSc2nc(N)cc(N)n2)c1	-0.6%	1.2e-08	i	i	-2%
O=C(CSc1nc2ccsc2c(=O)n1-c1ccccc1)N1CCCC1	-0.1%	1.9e-08	i	i	?
CCOC(=O)c1c(C)nn(Cc2cccc(Cl)c2)c1N	-0.9%	1e-09	i	i	4%[11.4 µM]
CCN(c1ccccc1)c1nc2ccsc2c(=O)s1	6.9%	1.2e-08	i	i	?
Cc1ccc(-c2nsc3c(N4CCC(C(N)=O)CC4)ncnc23)cc1	0.5%	1e-09	i	i	-8%
Cc1cc2ccc(OC(=O)c3ccc(N=C(N)N)cc3)cc2oc1=O	-4.2%[11.5 µM]	2.9e-08	i	i	-1%[11.4 µM]
CCCS(=O)(=O)N1CCCC(C(=O)NC2CCCC(C)C2C)C1 (centres undefined)	1.7%	1e-09	i	i	4%
Cc1ccc(Cl)cc1NC(=O)CCn1cccc1	0.4%	.	.	.	9%
CC(C)(C)OC(=O)N1CCC(C(=O)N2CCC[C@H]2C(=O)O)CC1	-1.7%	1.9e-09	i	i	-8%
O=C(O)CCNc1ncnc2nc[nH]c12	2.4%[11.5 µM]	6.5e-09	i	i	2%[11.4 µM]
Cc1cccc(NC(=O)CSc2nnc(-c3ccccc3Br)o2)c1C	-0.7%	5.7e-09	i	i	?
Cc1ccc(NC(=O)c2cc(NC(=O)c3ccco3)ccc2N2CCCCC2)cc1	-1.3%	.	.	.	14%
CCOC(=O)c1c(C)oc2ccc(OCC(=O)N(CC)CC)cc12	-0.4%	2.7e-08	i	i	?
CCOC(=O)CN1CC23C=CC(O2)C(C(=O)Nc2ccc(F)c(C)c2)C3C1=O (centres undefined)	1.4%	1e-09	i	i	4%
CCCCc1nc(NCCNC(=O)c2ccco2)c(C#N)c2c1CSC(C)(C)C2	.	1e-09	i	i	.
O=S(=O)(NCc1cccnc1)c1cc(Cl)ccc1Cl	-0.3%	1.8e-08	i	i	-14%
CS(=O)(=O)N1CCC2(CCN(c3cccc(-c4ccccc4)c3)CC2)CC1	1.3%	1e-09	i	i	-1%
COc1ccc(C(=O)Nc2nccs2)cc1OC	2.4%	.	.	.	-5%
Cc1ccc(NC(=O)CSC2=C(C#N)C(c3ccc4c(c3)OCO4)C3=C(CCCC3=O)N2)c(C)c1 (centres undefined)	1.8%	.	.	.	2%
CCOC(=O)c1ccc(NS(=O)(=O)N2CCCCCC2)cc1	-0.4%	5.5e-09	i	i	26%

Filtered by structure: the entries above containing a cyano group
SMILES	AID923	A647 fluor	A488 autofl	Resorufin autofl	TSHR agonist
COc1ccc(NC(=O)CSc2nc3c(cc2C#N)CN(C)CC3)cc1	8.4%	1e-09	i	i	10%
COc1cc(C2C(C#N)=C(C)NC3=C2C(=O)CC(C)(C)C3)ccc1O (centres undefined)	3.1%	7.4e-09	i	i	-5%
Cc1ccc(OCc2nnc(SCC(=O)Nc3sc(C)c(C)c3C#N)n2C)cc1	0.0%	1e-09	i	i	?
CCOC(=O)c1c(C)[nH]c(C(=O)OC/C(O)=C(\C#N)c2nc3ccccc3[nH]2)c1C	-2.0%	1.9e-08	i	i	5%
CCCCc1nc(NCCNC(=O)c2ccco2)c(C#N)c2c1CSC(C)(C)C2	.	1e-09	i	i	.
Cc1ccc(NC(=O)CSC2=C(C#N)C(c3ccc4c(c3)OCO4)C3=C(CCCC3=O)N2)c(C)c1 (centres undefined)	1.8%	.	.	.	2%

This is a subset; the hit share may differ from the screen's.
